# BJeLR lethal: BJeLR cell viability loss | BJeLR (HRASV12) viability, CellTiter-Glo ATP luminescence, 48 h; reference of the scale not given here | inhibition, % (no concentration beside the values) | actives 0.17% (n = 300,000) | AID 1554;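 active means replicate mean above 50%; inconclusive means above 50% but judged a plate artefact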;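 further: 50 nL library stock added to about 25 µL; numbers are from one replicate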
# Autofluor counter: flagged as autofluorescent in microsphere protease counterscreen; compound autofluorescence counterscreen, microsphere flow cytometry; hits give high values; AID 624483; fluorescence intensity (concentration not given with the values); actives 3.1% (n = 360,000);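 active means at least 3 SD above the mean of all compounds, about 16000 in these data; inconclusive means too few beads counted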;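 further: 100 nL of 1 mM stock went into each well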
# PrP UTR inh: inhibition of PrP 5' UTR reporter expression | cell-based PrP 5' UTR mRNA reporter, plate reader | inhibition, % (concentration not given with the values) | actives 0.35% (n = 340,000);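 active means every replicate at 50% or more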;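 further: 0 = median of the neutral control wells; tested in H4 reporter cells; numbers are from one replicate; inactives centre near -14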
# Sa RN4220 lethal: S. aureus RN4220 growth inhibition | OD600, 16 h | inhibition, % (no concentration beside the values) | actives 0.33% (n = 330,000);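 active means z-score of -3 or lower and OD600 up to 0.18 on both plates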;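 further: plate controls were untreated cells for no effect and reference antibiotic for full effect; stock transfer was 100 nL into about 80 µL; one replicate is shown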
# ugtP null kill: growth inhibition of S. aureus ugtP deletion strain | S. aureus RN4220 ugtP deletion, OD600 growth, 16 h; some inactives read as strong as hits | growth inhibition, % (test concentration not listed) | actives 0.54% (n = 330,000);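 active means z-score under -3 and OD600 up to 0.15 on both plates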;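 further: plate controls were untreated wells for no effect and antibiotic for full effect; wells of about 80 µL received 100 nL stock; the first replicate is given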
# Mtb hypoxia rep: inhibitors of hypoxia-regulated fluorescent reporter in Mycobacterium tuberculosis; fluorescence inhibition, % (concentration not given with the values); M. tuberculosis hypoxia-regulated fluorescent reporter, fluorescence; actives 0.1% (n = 300,000); AID 1159583;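 active means 35 to 45% if threefold the growth effect, above 45% if 1.5-fold the growth effect; inactive means the rest, general growth blockers included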;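 further: wells of about 50 µL received 100 nL stock; 0% = vehicle wells and 100% = reference inhibitor wells; whole bacteria with a GFP reporter of the hypoxia response; strong numbers were not always called active; many hits fall short of the cut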
# Mtb hypoxia rep growth: second read-out of Mtb hypoxia rep, no call of its own (marks repeat the call); growth inhibition, %; measured here: M. tuberculosis growth (absorbance);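 0% = vehicle and 100% = reference antibiotic; read after six days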
# Starred values were filed as active, the others as inactive; ? = inconclusive; nt = no result given; & = joins results of further samples.
nr	Compound	BJeLR lethal	Autofluor counter	PrP UTR inh	Sa RN4220 lethal	ugtP null kill	Mtb hypoxia rep	Mtb hypoxia rep growth
1	O=C1C(C2=NC(C(=O)O)C3C(=O)N(c4ccc(Cl)cc4)C(=O)C23)=C(O)c2ccccc21 (stereo unspecified)	-11	3731	-8	1.9	-1	11	6
2	CCOc1ccc(OCCC(=O)N(CC(C)C)c2c(N)n(Cc3ccccc3)c(=O)[nH]c2=O)cc1	nt	3125	-5	6.1	7	1	-3
3	Cc1cc(C)c(C#N)c(SCC(=O)Nc2ccccc2C(N)=O)n1	0	?	-40	4.7	2	5	-1
4	COC(=O)C1=C(C)N=c2sc(=C3C(=O)Nc4ccccc43)c(=O)n2C1c1ccccc1 (stereo unspecified)	nt	nt	nt	2.7	9	9	9
5	O=C(NCc1cccs1)C1CCCN(S(=O)(=O)c2cnc[nH]2)C1 (stereo unspecified)	11	4592	-14	-1.7	2	nt	nt
6	CCOC(=O)C1C(=O)Nc2nc(C)nn2C1c1ccccc1 (stereo unspecified)	-2	9117	-49	2.4	3	2	8
7	S=C1NC[C@H](Cc2cccc3ccccc23)N1CC1CCCCC1	-20	2838	-13	nt	nt	nt	nt
8	COc1ccc(C(C#N)N2N=C(C)CC2(C)C)cc1 (stereo unspecified)	-1	4134	-9	-1.5	0	13	6
9	COc1ccc(C2CC(C(F)(F)F)n3nc(C(=O)NCCN4CCOCC4)cc3N2)cc1 (stereo unspecified)	9	17087*	-17	8.8	8	3	12
10	COc1cc(-c2[nH]ncc2CN2CCCC2c2nonc2C)cc(OC)c1OC (stereo unspecified)	6	2514	-14	0.2	11	3	6
11	N/C(CN1CCCCC1)=N\S(=O)(=O)c1cc(Cl)cc(Cl)c1	6	6395	-7	1.4	3	-3	10
12	CCNc1oc(COc2cccc(C)c2)nc1C#N	-2	3087	-38	3.2	-4	5	7
13	CC(C)(C)c1ccc(C(=O)Nc2cccc3c(=O)[nH][nH]c(=O)c23)cc1	-5	1932	30	nt	nt	nt	nt
14	CCCOc1ccc(/C=N/NC(=O)C(C)Sc2ccccn2)cc1OCC (stereo unspecified)	-1	2404	-7	nt	nt	nt	nt
15	CCc1noc(C)c1C(=O)N1CCOCC1	-4	11751	nt	6.0	10	9	7
16	c1coc(CNc2nc(-c3ccncc3)cs2)c1	8	9594	-44	5.9	3	7	5
17	COc1ccccc1N1CCN(C(C)C(=O)N2CC(C)OC(C)C2)CC1 (stereo unspecified)	6	4115	-26	5.5	4	-8	6
18	COCCn1nnnc1CN(Cc1cc2cc(OC)c(OC)cc2[nH]c1=O)C1CCCC1	8	2963	-13	-14	-6	13	7
19	CCN(CC(=O)Nc1ccc2c(c1)OCCO2)C(=O)CCc1ccccc1Cl	nt	5659	-7	4.0	6	7	11
20	CSCCC(NC(=O)COc1ccccc1)C(=O)N(C)CC(=O)Nc1ccc(C)cc1 (stereo unspecified)	nt	4217	-30	1.6	1	13	8
21	Cc1cccc(CC(=O)Nc2cc(=O)n(C)c(=O)n2C)c1	11	4920	-16	2.8	9	7	1
22	Clc1ccc(C2N3CCCN23)c(Cl)c1 (stereo unspecified)	17	3362	-4	4.8	2	nt	nt
23	Cc1ccc(OCC(=O)N/N=C\c2ccc(O)c([N+](=O)[O-])c2)c([N+](=O)[O-])c1	1	2193	-16	nt	nt	nt	nt
24	Cc1cccc(C(C)C)c1NC(=O)COC(=O)C1CC(=O)N(Cc2ccccc2)C1 (stereo unspecified)	-4	7327	-7	4.2	6	8	6
25	CC(C)(C)NC(=O)C12CCC(C)(c3nc4ccccc4nc31)C2(C)C (stereo unspecified)	-7	22617*	-30	0.8	6	7	13
26	COc1cc(CCCN2C(=S)NCC2Cc2ccc(O)cc2)cc(OC)c1OC (stereo unspecified)	nt	nt	nt	3.4	-2	-9	2
27	O=C(Nc1ccccc1N1CCCC1)c1ccc([N+](=O)[O-])o1	-14	4591	-8	6.2	15	13	12
28	Cc1ccc(Oc2ccccc2NC(=O)CSCC(=O)Nc2cc(C)on2)cc1	5	?	-10	4.5	2	2	3
29	O=C(NN=Cc1cccc([N+](=O)[O-])c1)c1cc2c(ccc3ccccc32)o1	nt	nt	nt	-18	-13	0	-3
30	NC(=O)CSc1nc2cc(S(=O)(=O)N3CCOCC3)ccc2o1	nt	4123	-13	2.2	2	3	-2

# Structural class, those above with a tert-butyl group.
nr	Compound	BJeLR lethal	Autofluor counter	PrP UTR inh	Sa RN4220 lethal	ugtP null kill	Mtb hypoxia rep	Mtb hypoxia rep growth
13	CC(C)(C)c1ccc(C(=O)Nc2cccc3c(=O)[nH][nH]c(=O)c23)cc1	-5	1932	30	nt	nt	nt	nt
25	CC(C)(C)NC(=O)C12CCC(C)(c3nc4ccccc4nc31)C2(C)C (stereo unspecified)	-7	22617*	-30	0.8	6	7	13

# New compounds follow.
nr	Compound	BJeLR lethal	Autofluor counter	PrP UTR inh	Sa RN4220 lethal	ugtP null kill	Mtb hypoxia rep	Mtb hypoxia rep growth
31	CCOc1ccc(N2CC(C(=O)Nc3nnc(CC)s3)CC2=O)cc1 (stereo unspecified)	-3	5062	-32	-0.6	5	18	13
32	Cc1ccc(CCNC(=O)C2CC(c3cc(C(F)(F)F)cc(C(F)(F)F)c3)=NO2)cc1 (stereo unspecified)	13	4169	-15	16	11	18	7
33	O=C(O)c1cccc(NC(=S)NN=Cc2ccccc2OCc2ccc(Br)cc2)c1	nt	nt	nt	37	25	13	-2
34	COc1ccc2cc(C(=O)C3CCCN(Cc4cnc(N5CCOCC5)s4)C3)ccc2c1 (stereo unspecified)	6	5425	-48	-0.4	7	10	11
35	C[n+]1ccc(/C=C/c2ccc(Br)cc2)cc1	10	2557	-4	8.4	-1	-4	9
36	CCN(c1ccccc1)S(=O)(=O)c1cccc(C(=O)NCCN2CCOCC2)c1	nt	9042	-16	9.0	6	7	3
37	Cc1ccc(-c2nc(CS(=O)(=O)CC(=O)N3CCCCCC3)c(C)o2)cc1	6	4658	1	14	17	5	8
38	C=C(C)CNC(=S)NNC(=O)CCn1c2ccc(Cl)cc2c2cc(Cl)ccc21	-7	2050	-9	93*	43	0	0
39	COc1cccc(Nc2ccc(-n3ccnc3)nn2)c1	2	4559	-17	1.6	10	-6	6
40	COc1cccc2cc(C(=O)NCCc3ccccc3)c(=O)oc12	-4	4088	-34	2.8	2	13	0
41	CN(C)S(=O)(=O)c1cc(NC(=O)COC(=O)CC2Sc3ccccc3NC2=O)ccc1Cl (stereo unspecified)	nt	3051	-21	5.1	-2	3	6
42	Cc1ccccc1NC(=O)CN1C(=O)NC2(CCCCC2)C1=O	-6	2680	-38	-0.6	6	nt	nt
43	COc1ccc(N=C2C(=O)N3c4c(cccc42)C(C)=CC3(C)C)cc1	0	1848	-7	-1.6	-1	2	17
44	COC(=O)c1c(C)oc2ccc(NS(=O)(=O)c3cc(OC)ccc3OC)cc12	12	2678	-12	4.3	0	nt	nt
45	CC(=NNC(=O)c1ccc(NS(=O)(=O)c2cccs2)cc1)c1ccccc1	nt	nt	nt	1.6	13	7	3
46	CCCc1cc(=O)[nH]c(SCC(=O)C(C)(C)C)n1	-6	3885	-10	2.1	0	8	5
47	O=C(CN1CCN(S(=O)(=O)c2ccc(F)cc2)CC1)Nc1ccc(Cl)cn1	-5	3308	-28	4.8	13	-4	7
48	CCC(C(=O)NN1C(=O)c2ccccc2C1=O)c1ccccc1 (stereo unspecified)	3	4382	-25	nt	nt	nt	nt
49	O=[N+]([O-])c1cc([N+](=O)[O-])c(Oc2cc(F)ccc2F)cc1NN1CCCCC1	7	3893	0	-2.3	-11	9	9
50	Cc1c(NC2(C#N)CCCC2)c(=O)n(-c2ccccc2)n1C	4	7705	-34	3.0	-9	1	6
51	Cc1c(C)n(Cc2ccccc2)c2ccc(C(=O)NCCCN3CCOCC3)cc12	-3	6488	-11	2.8	-4	21	8
52	CC(/C=C/c1ccccc1)=NNc1nc2c(c(=O)[nH]c(=O)n2C)n1CCO	nt	nt	nt	2.2	15	-3	-6
53	Cc1[nH]n(-c2ccccc2)c(=O)c1C=NCC1CCCO1 (stereo unspecified)	-6	4050	-39	1.6	2	7	7
54	CCOC(=O)c1sc(NC(=S)NC(=O)c2cccc(OC)c2)nc1C	7	3119	-15	-2.9	-8	16	6
55	CCC(C)c1ccc(NC(=O)NCc2cccnc2)cc1 (stereo unspecified)	-5	5685	-6	nt	nt	nt	nt
56	CCn1cc(C(=O)OCC(=O)Nc2c(C)n(C)n(-c3ccccc3)c2=O)c(=O)c2ccc(C)nc21	2	23317*	-40	0.5	-4	-7	11
57	Cc1cc(Cl)c2oc(C(=O)N3CCN(C(=O)c4ccco4)CC3)c(C)c2c1	-1	4396	-54	3.7	-5	6	-2
58	CC(OC(=O)/C=C/c1ccc2ccccc2n1)C(=O)Nc1ccc(S(N)(=O)=O)cc1 (stereo unspecified)	6	5421	-7	-2.9	-4	-10	-3
59	CCC1CCCCN1CCCNC(=O)CCCNC(=O)Cn1cnc2sc3c(c2c1=O)CCCC3 (stereo unspecified)	-18	4738	-16	3.5	1	11	2
60	O=S(=O)(NCc1ccco1)c1cccc2cccnc12	-1	2295	-24	-0.3	2	nt	nt
61	O=C(CSc1nc2ccccc2c(=O)n1-c1ccccc1)NCC1CCCO1 (stereo unspecified)	2	3638	-19	0.9	4	-8	-11
62	Cc1ccc(C(=O)Nc2nnc(-c3ccco3)o2)cc1C	-5	2152	-15	13	-8	1	6
63	CCCC(C)n1[nH]c(=O)c2c1NC(=O)CSC2c1ccc(OC)cc1 (stereo unspecified)	6	2280	-16	3.5	0	-4	-2
64	Cc1cccc(NC(=O)c2ccc3nccnc3c2)c1C	-14	6168	-39	4.1	-6	0	-3
65	COC(=O)c1cnc(SCc2ccc(Cl)cc2)n1C	2	4783	-6	8.0	13	3	1
66	O=C(C[C@H]1C[C@H](C(=O)N2CCOCC2)[C@@]2(CCC3CCCC3)c3[nH]c4cc(-c5ccco5)ccc4c3CCN2C1=O)NCc1ccco1	nt	4101	-8	-2.3	-19	-7	11
67	CC(C)(C)C1COC(=O)C(NC(=O)OCC2c3ccccc3-c3ccccc32)CC=CCC(CC(=O)NC(CO)Cc2ccccc2)C(=O)N1 (stereo unspecified)	nt	nt	nt	6.0&6.8&7.4	0&-10&-10	11&4&9	12&10&15
68	CCOC(=O)c1ccc(S(=O)(=O)Nc2ccc3cn[nH]c3c2)cc1	1	9170	-1	2.9	-8	-3	3
69	COc1cc(/C=C/C(=O)NNC(=O)c2cccc(S(=O)(=O)N(C)C)c2)cc(OC)c1OC	nt	6443	-3	0.9	-1	-10	2
70	O=C(N/N=C/c1ccccc1O)C1CC(=O)N(c2ccc(F)cc2)C1 (stereo unspecified)	2	4359	-5	nt	nt	nt	nt
71	CCS(=O)(=O)N1CCC(C(=O)c2ccc(Cl)cc2)CC1	2	5390	-5	0.6	-1	8	8
72	Fc1ccccc1N1CCN(c2ncnc3[nH]ncc23)CC1	5	4641	-14	9.8	-3	-8	11
73	COc1ccc(NC(=O)c2cc(C)on2)cc1	1	4201	-39	0.9	-7	9	7
74	COCCNC(=O)c1ccccc1-c1nc(-c2ccccc2OC)no1	-4	10579	-16	-0.4	-1	-2	-5
75	CN(NC(=O)c1ccc(Cl)cc1)c1ncc(C(F)(F)F)cc1Cl	-10	4366	-30	-2.0	-9	21	19
76	COc1ccc2oc(C(=O)Nc3nc(-c4ccccn4)cs3)c(C)c2c1	-4	5806	-5	9.0	-12	7	2
77	CCN1CCN(C(=O)CCc2nnc3ccc(N4CCN(c5cccc(OC)c5)CC4)nn23)CC1	-4	nt	-17	-4.1	-5	1	3
78	Cc1cc(=O)[nH]c(SCC(=O)c2ccc(O)c(O)c2)n1	-4	3595	-8	nt	nt	nt	nt
79	O=C(Cc1ccccc1)NCCSCc1ccco1	1	10944	-31	3.4	-1	7	6
80	CC(NC(=O)COC(=O)CSCc1ccccc1)c1ccccc1 (stereo unspecified)	5	4087	-11	-0.2	7	7	2
81	CC1CCN(CCOc2cccc(Br)c2)CC1	8	2102	-14	3.5	2	0	9
82	COc1ccc(OCC(=O)NC2CC(C)(C)NC(C)(C)C2)cc1	-6	8333	-7	6.4	-1	14	5
83	COc1ccc(CCn2c(=O)[nH]c3cc(C(=O)NCCN4CCOCC4)ccc3c2=O)cc1OC	-1	5758	4	1.7	0	4	9

# Compound activity (PubChem BioAssay)
